ALR inh = blocks human ALR sulfhydryl oxidase activity; AID 485317; P55789; inhibition, % (concentration not given with the values); purified ALR, DTT oxidation, H2O2 HRP-luminol luminescence; 3.8% of 290,000 active;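 active means mean and each replicate at 75% or more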;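 further: stock transfer was 7.5 nL into about 7.5 µL; 0% = neutral wells and 100% = wells with inactivated enzyme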
Target sequence (P55789 whole entry, looked up): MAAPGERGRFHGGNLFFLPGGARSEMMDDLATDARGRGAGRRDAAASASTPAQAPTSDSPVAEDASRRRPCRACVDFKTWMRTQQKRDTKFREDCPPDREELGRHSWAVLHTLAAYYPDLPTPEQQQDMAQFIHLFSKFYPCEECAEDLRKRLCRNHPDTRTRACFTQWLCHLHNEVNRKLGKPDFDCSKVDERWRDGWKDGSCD
HNF4A DNA FP = change in binding of human HNF4 alpha to DNA. HNF4a-FITC DNA binding, fluorescence polarization, 1 h. activity change, % at 10 µM. 0.3% of 360,000 active; in the data active means activity change above about 30%, passing the limit was not always enough;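 further: controls were the assay level and a saturating level of protein; the project sought stronger binding though the title names inhibitors; some compounds called inactive have numbers as strong as hits; positive values seem to mean higher polarization but the record does not say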
Ecoli rRNA inh = inhibitors of bacterial rRNA selective over humanized ribosomes | GFP signal change (wild-type ribosome), % (concentration not given with the values) | 1.6% of 350,000 active | AID 720706 | E. coli WT GFP vs humanized-ribosome RFP mutants, fluorescence, 24 h; hits give low values; DMSO median 0, no signal -100;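 active means significant combined selectivity score with lowered wild-type GFP, culture density cut under 30%, mutant RFP and density less affected; inactive means any of these conditions unmet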; further: one replicate is shown; some compounds called inactive have numbers as strong as hits
MLL AF4-AF9 inh = MLL-AF4/AF9 protein interaction inhibition. inhibition, % at 10 µM. AID 651704. AlphaScreen, biotin-AF4 peptide binding to FLAG-AF9. 0.47% of 350,000 active. P42568;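 active means every replicate reaching a set inhibition limit, whatever the replicate mean, cut at about 25% in these data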;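 further: 0% = plate neutral control median and 100% = total signal loss; the record names both 10 and 1 µM as test concentration; the first replicate is given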
Target sequence (P42568 whole entry, looked up): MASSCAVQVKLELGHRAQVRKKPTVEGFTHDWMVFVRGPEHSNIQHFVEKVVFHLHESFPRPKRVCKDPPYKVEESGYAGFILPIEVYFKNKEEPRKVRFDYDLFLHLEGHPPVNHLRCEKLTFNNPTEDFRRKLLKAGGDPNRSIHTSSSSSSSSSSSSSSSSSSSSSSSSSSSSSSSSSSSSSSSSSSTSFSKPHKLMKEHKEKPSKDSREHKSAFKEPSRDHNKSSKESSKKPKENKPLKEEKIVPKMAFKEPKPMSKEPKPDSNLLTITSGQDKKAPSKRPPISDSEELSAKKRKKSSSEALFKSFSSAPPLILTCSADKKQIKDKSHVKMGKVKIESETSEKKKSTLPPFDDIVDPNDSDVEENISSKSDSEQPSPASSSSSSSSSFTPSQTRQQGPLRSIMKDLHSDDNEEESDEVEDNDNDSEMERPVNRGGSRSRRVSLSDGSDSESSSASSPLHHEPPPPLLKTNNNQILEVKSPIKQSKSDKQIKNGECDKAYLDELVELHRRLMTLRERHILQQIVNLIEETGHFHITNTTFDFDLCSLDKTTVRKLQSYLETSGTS
FGF22 binding = shifts melting point of recombinant human FGF22. AID 651658. calls only at 9.99 µM. recombinant FGF22 thermal shift, SYPRO orange fluorescence; percent of sucrose octasulfate shift, DMSO zero. 1.5% of 340,000 active;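 active means melting point raised past a set limit in the mean and every replicate; three in four hits are not shown here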
Target sequence (Q9HCT0 whole entry, looked up): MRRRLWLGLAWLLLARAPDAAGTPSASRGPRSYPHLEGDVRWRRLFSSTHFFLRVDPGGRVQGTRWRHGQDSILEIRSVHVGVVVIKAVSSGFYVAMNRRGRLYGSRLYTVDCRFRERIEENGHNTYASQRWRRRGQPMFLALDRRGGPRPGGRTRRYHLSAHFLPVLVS
Vif TR-FRET = inhibitors of Vif binding to APOBEC3G peptide, primary screen, biochemical, TR-FRET, GST-Vif 1-94, biotin-A3G peptide, dose response retest (AID 1117319) | TR-FRET GST-Vif / biotin-A3G peptide binding; higher % means a stronger effect; test concentration not given here; strong numbers were not always called active | inhibition, %, or IC50 in µM where a hit was titrated | 0.57% of 260,000 active;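 active means above the screen mean plus three standard deviations and confirmed in dose response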;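 further: Vif residues 1-94 fused to GST binding biotinylated APOBEC3G peptide 110-148; 0% = full assay without inhibitor and 100% = GST in place of GST-Vif; retest series ran down from 100 µM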
E coli growth = blocks Escherichia coli growth. OD600 absorbance (no concentration beside the values). 0.21% of 330,000 active. OD600, 23 h; hits give low values;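 active means OD600 absorbance below the run mean of sample wells minus 3.6 SD, in any replicate, cut at about 0.56 in these data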;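 further: stock transfer was 300 nL into about 60 µL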
Ecoli rRNA inh OD600 = further read-out of Ecoli rRNA inh, marked with its call; OD600 change, %; measured here: OD600 growth;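 optical density of the mix in the first replicate; 0 = DMSO median and -100 = no signal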
Ecoli rRNA inh RFP = recorded beside Ecoli rRNA inh, whose call it bears; RFP signal change, %; measured here: RFP humanized mutant strains;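 first replicate; 0 = DMSO median and -100 = no signal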
* marks the source's active call; other numbers are inactive results; i = inactive; . = not tested or not shown; & = joins results of further samples. This is a subset. The share of hits here may be higher or lower than overall.

compound	ALR inh	HNF4A DNA FP	Ecoli rRNA inh	Ecoli rRNA inh OD600	Ecoli rRNA inh RFP	MLL AF4-AF9 inh	FGF22 binding	Vif TR-FRET	E coli growth
CC(COS(N)(=O)=O)Cc1ccc(C(F)(F)F)cc1 (stereo not drawn)	0.2	1.6	2.2	3.3	2.6	-1.9	i	.	0.657
CN(C)c1ccc(C(=O)C(O)c2ccc(C(C)(C)C)cc2)cc1 (stereo not drawn)	-1.4	-1.7	.	.	.	.	.	-11.8%	0.693
COc1ccc(N(CC(=O)NC2CCCCC2)S(=O)(=O)c2cccnc2)cc1	-1.6	2.2	6.4	3.5	1.0	-5.1	i	3.0%	0.745
CCC(=O)N1[C@@H]2c3cccc(=O)n3C[C@@H]2[C@@H](CO)[C@@H]1C(=O)NCC1CC1	.	.	-2.4	-2.3	-4.0	1.7	i	.	.
Cc1cc(C(=O)NCCC2=CCCCC2)no1	-3.6	-4.2	.	.	.	.	.	2.8%	.
COCCn1nnnc1C(CC(C)C)N1CCN(c2cccc(OC)c2)CC1 (stereo not drawn)	.	-6.3	.	.	.	.	.	3.8%	0.689
O=C(C1=C[C@H](c2csc3ccccc23)C[C@H](OCc2ccc(CO)cc2)O1)N1CCN(Cc2ccc3c(c2)OCO3)CC1	-2.0	2.8	8.7	11.6	23.0	4.1&0.8	i	7.4%	.
O=C(COC(=O)c1cc(S(=O)(=O)NCc2ccccc2)ccc1O)c1cc2ccccc2o1	-22.9	-1.4	6.2	5.8	-2.0	-2.6	i	.	0.65
C=CCn1c(=O)c(C(=O)NCCN(CC)CC)c(O)c2ccccc21	9.8	1.0	.	.	.	.	.	-9.1%	0.755
CCOC(=O)N1CCN(C(=O)Nc2ccc(Cl)cc2Cl)CC1	2.9	1.7	.	.	.	.	.	2.9%	0.741
CCC(C)NC(=O)Cn1c(=O)n(-c2ccccc2)c(=O)c2ccc(C(=O)NCc3ccco3)cc21 (stereo not drawn)	0.7	1.7	.	.	.	.	.	12.6%	0.685
Cc1ccc2oc(=O)c3cnn(CC(=O)NCCC(C)C)c3c2c1	-11.7	-1.3	9.5	12.0	0.4	-7.2	i	-1.7%	0.739
NC(=O)CSc1nnc(COc2ccccc2)n1C1CCCCC1	.	0.3	.	.	.	.	.	-3.5%	0.664
COc1ccccc1NC(=O)CCCc1nnc2n(C)c(=O)c3sccc3n12	0.4	2.1	2.6	2.7	-0.8	-1.3	i	-2.5%	0.665
CCCNC(=O)Nc1ccc2c(c1)OC[C@@H](C)N(Cc1cncnc1)C[C@H](C)[C@H](OC)CN(C)C2=O	.	.	-0.8	2.5	-1.6	-1.1	i	.	.
COC(=O)C1=C(CSCc2ccccc2)NC(=O)NC1c1cc(C)ccc1C (stereo not drawn)	-1.9	2.2	.	.	.	8.3	i	1.7%	0.676
O=C(C[C@@H]1CC[C@H]2[C@@H](COC[C@H](O)CN2C(=O)c2cnccn2)O1)N1CCN(c2ccccc2)CC1	.	.	2.8	25.0	-1.5	0.2	i	.	.
COc1cc(/C=N/NC(=O)c2cccc([N+](=O)[O-])c2)ccc1OCc1ccccc1	-13.5	3.9	10.4	17.5	-8.8	3.6	i	-3.9%	.
COc1ccccc1C#Cc1ccc2c(c1)[C@@H]1[C@@H](CCN1C(=O)c1ccccc1)[C@@H](CO)N2	.	.	-6.2	5.1	11.6	-1.9	i	.	.
O=S(=O)(N[C@H]1CC[C@H](CCn2cc(C3CC3)nn2)O[C@H]1CO)c1ccc(F)cc1	.	.	-0.1	5.2	-0.3	-1.5	i	.	.
C[C@@H]1CCCCO[C@@H](CN(C)C(=O)Nc2ccc3c(c2)OCO3)[C@H](C)CN([C@H](C)CO)C(=O)c2cc(NC(=O)Nc3cccc4ccccc34)ccc2O1	.	.	1.8	5.9	0.1	1.2	i	.	.
COc1cccc(CC(=O)Nc2nc(C)cs2)c1	-9.2	3.0	-10.3	-4.3	-1.9	-0.6	i	21.6%	0.645
CO[C@H]1CN(C)C(=O)c2ccc(NC(=O)NC(C)C)cc2OC[C@H](C)N(C(=O)CC2CC2)C[C@H]1C	.	.	2.6	-0.1	-0.5	-2.5	i	.	.
O=C(CN(Cc1ccccc1)C1=NCCS1)c1ccccc1	.	-0.3	16.3	6.2	2.3	4.9	i	-4.4%	0.666
CC(C)(C)NC(=O)COc1ccc(CNCc2ccccn2)cc1	-4.8	1.3	10.5	3.8	-0.2	-1.4	i	0.4%	.

Profiles, quoted from the list. Screens in order: ALR inh	HNF4A DNA FP	Ecoli rRNA inh	Ecoli rRNA inh OD600	Ecoli rRNA inh RFP	MLL AF4-AF9 inh	FGF22 binding	Vif TR-FRET	E coli growth
Entry for NC(=O)CSc1nnc(COc2ccccc2)n1C1CCCCC1 = .	0.3	.	.	.	.	.	-3.5%	0.664
Entry for O=C(COC(=O)c1cc(S(=O)(=O)NCc2ccccc2)ccc1O)c1cc2ccccc2o1 = -22.9	-1.4	6.2	5.8	-2.0	-2.6	i	.	0.65

Back to the main list, repeating the 2 entries before the break.
compound	ALR inh	HNF4A DNA FP	Ecoli rRNA inh	Ecoli rRNA inh OD600	Ecoli rRNA inh RFP	MLL AF4-AF9 inh	FGF22 binding	Vif TR-FRET	E coli growth
O=C(CN(Cc1ccccc1)C1=NCCS1)c1ccccc1	.	-0.3	16.3	6.2	2.3	4.9	i	-4.4%	0.666
CC(C)(C)NC(=O)COc1ccc(CNCc2ccccn2)cc1	-4.8	1.3	10.5	3.8	-0.2	-1.4	i	0.4%	.
Cn1c(NC(=O)c2ccccc2C(F)(F)F)cc(=O)n(C)c1=O	-8.7	-0.2	7.4	13.2	-0.1	3.9	i	1.6%	0.731
CCOC(=O)CC1C(=O)NCCN1C(=O)c1ccc(Cl)c(Cl)c1 (stereo not drawn)	.	1.5	-0.7	7.2	1.8	4.0	i	-10.0%	0.645
Cc1ccccc1N(C(=O)c1snc(C(N)=O)c1N)C(C(=O)NC1CCCCC1)c1ccc(O)cc1 (stereo not drawn)	.	-3.1	-1.2	-12.5	2.7	1.3	i	.	0.637
CCCN(C)C[C@H]1OCCCC[C@@H](C)Oc2ccc(NC(=O)CCCN(C)C)cc2C(=O)N([C@H](C)CO)C[C@@H]1C	.	.	3.0	2.9	-1.6	-2.2	i	.	.
CCNC(=O)CN(c1ccc(F)cc1)S(=O)(=O)c1ccc2c(c1)OCCO2	39.3	-2.1	1.6	3.8	-1.9	-6.9	i	.	0.624
CCc1ccccc1NC(=O)CCS(=O)(=O)c1ccc(OC)cc1	.	-8.9	10.9	11.9	-0.9	-5.1	i	.	0.668
C[C@@H]1CCCCO[C@H](CN(C)C(=O)Nc2ccccc2)[C@H](C)CN([C@H](C)CO)C(=O)c2cc(NS(C)(=O)=O)ccc2O1	.	.	-0.7	3.2	-0.8	-4.4	i	.	.
N/C(=N\OC(=O)COc1ccccc1)c1cccnc1	-6.0	1.0	7.8	5.5	0.7	0.3	i	.	0.659
Cc1cc(C)cc(C(=O)NC2CC(C)(C)NC(C)(C)C2)c1	-4.5	-0.1	7.1	10.5	2.6	2.1	i	.	0.662
O=C(NC1(C(F)(F)F)N=C(c2ccccc2)NC1=O)c1ccccc1 (stereo not drawn)	.	4.6	.	.	.	3.7	i	10.4%	0.707
COc1ccc(-c2nc(N)n(C(=O)c3ccc(C)cc3)n2)cc1	-2.0	1.6	20.0	22.4	-2.1	-0.2	i	-2.4%	0.721
Cc1cccc(C)c1NC(=O)C1(C)CN(S(C)(=O)=O)CC(=O)N1CCc1ccc(O)cc1 (stereo not drawn)	.	5.2	7.5	16.4	1.8	0.8	i	.	.
O=C(C[C@H]1C[C@@H]2c3cc(NC(=O)c4cccnc4)ccc3O[C@@H]2[C@H](CO)O1)NCc1cccnc1	.	.	4.9	9.8	-2.1	0.9	i	.	.
C=CCc1cc(OC)ccc1OCCON1C(=O)CCC1=O	3.7	2.3	.	.	.	.	.	-2.4%	0.776
CCCCN(NC(C)=O)c1nc(Cl)nc(NC(C)C)n1	-8.9	0.3	10.0	8.5	-5.8	-30.4	i	-3.9%	0.666
O=C(Nc1ccc(C(F)(F)F)cc1)Nc1ccc2c(c1)[C@@H]1C[C@H](CC(=O)N3CCc4ccccc4C3)O[C@@H](CO)[C@@H]1O2	.	.	-4.9	-12.3	2.9	-11.3	i	.	.
NC(=O)c1ccsc1NC(=O)c1ccc([N+](=O)[O-])o1	-9.2	1.1	-35.2	-46.1	-5.5	-3.6	i	.	0.2*
CCc1ccccc1NC(=O)CN(C)S(=O)(=O)c1ccc(-c2ccc(=O)[nH]n2)s1	15.4	-3.0	3.7	10.1	0.2	-2.1	i	.	0.66
O=C(NC12CC3CC(CC(C3)C1)C2)c1ccc(-c2ccc(Cl)cc2)o1	-3.4	4.7	2.1	-9.8	-5.0	5.3	i	.	0.664
CC(=O)Nc1ccc(S(=O)(=O)N(C)c2ccc(OCC(=O)OCC(=O)Nc3ccc(OC(F)F)cc3)cc2)cc1	-3.9	-1.8	2.7	3.0	0.0	-0.7	i	.	0.678
Clc1ccccc1N=C1SCCS1	-4.7	-2.0	6.3	3.6	0.3	-9.9	i	.	0.691
O=S(=O)(Cc1ccccc1Cl)N1CCCCC1	0.3	-3.0	.	.	.	.	.	17.1%	0.716
COC(=O)c1sc2cc(C(F)(F)F)cnc2c1-c1ccccc1	1.5	1.8	2.9	5.3	0.1	-6.1	i	-3.2%	0.674
COc1ccc(N2CCN(C(c3ccccc3)c3sc4nc(C)nn4c3O)CC2)cc1 (stereo not drawn)	19.8	-0.1	-18.0	-17.8	2.3	12.7	i	.	0.746
C[C@@H]1CCC(=O)N(C[C@@H](C)CC#N)CC1	0.7	-2.8	-5.2	-14.3	5.4	-0.5	i	.	.

compound	ALR inh	HNF4A DNA FP	Ecoli rRNA inh	Ecoli rRNA inh OD600	Ecoli rRNA inh RFP	MLL AF4-AF9 inh	FGF22 binding	Vif TR-FRET	E coli growth
C[C@]12c3[nH]c4ccccc4c3CCN1C(=O)C(CC(=O)NCCN1CCOCC1)C[C@@H]2C(=O)N1CCOCC1 (stereo partly drawn)	2.0	4.7	8.5	15.8	2.0	-2.9	i	-2.0%	0.68
CCN=C1S/C(=C\c2ccc(N3CCOCC3)cc2C)C(=O)N1CC	7.6	6.5	0.0	-1.0	-1.5	5.4	i	.	0.73
Cc1ccc(/C=C2\SC(=S)N(CCCC(=O)NNC(=O)c3ccccc3O)C2=O)cc1	-7.9	9.7	17.9	20.3	8.7	4.9	i	-2.6%	.
COc1ccc2c(c1)C(=O)C(=O)N2CC1COc2ccccc2O1 (stereo not drawn)	.	3.6	8.8	-6.8	2.9	6.1	i	-7.0%	0.617
Cc1ccc(-c2ccc(CN3C(C)C(=O)N(Cc4cn(CCC5OCCCO5)nn4)CCS3(=O)=O)cc2)cc1 (stereo not drawn)	.	-0.8	-2.9	-9.5	1.9	0.9	i	.	.
Cc1cccc(C)c1OCCSc1n[nH]c(N)n1	.	7.1	.	.	.	.	.	-3.6%	0.75
CC(C)c1nnc(NC(=O)C2CCN(c3nc4ccccc4s3)CC2)s1	-13.9	6.5	.	.	.	.	.	5.2%	0.684
Cc1cc(NC(=O)c2c(Br)c(C)nn2C)no1	-2.1	-0.8	.	.	.	.	.	21.4%	0.697
CCN(CC)S(=O)(=O)c1ccc(N2CCN(c3ccccc3OC)CC2)c(N)c1	-2.4	-1.9	-1.2	-0.6	-1.2	2.5	i	.	0.707

From PubChem BioAssay
